# High-throughput results as filed in PubChem.
# VDR inh = inhibitors of human vitamin D receptor; AID 504847; actives 0.93% (n = 400,000); Potency, µM, for the others: max response, negative = inhibition, hits mostly inhibitors; VDR-SRC2-3 peptide fluorescence polarization, 2 h; active means well fitted inhibition curve with a large enough effect; inconclusive means small, poorly fitted or top-dose-only effect, or another doubt; inactive means no such curve, though single readings can be large or run the other way; further: series mostly up to about 120 µM
# Target sequence (P11473 whole entry, looked up): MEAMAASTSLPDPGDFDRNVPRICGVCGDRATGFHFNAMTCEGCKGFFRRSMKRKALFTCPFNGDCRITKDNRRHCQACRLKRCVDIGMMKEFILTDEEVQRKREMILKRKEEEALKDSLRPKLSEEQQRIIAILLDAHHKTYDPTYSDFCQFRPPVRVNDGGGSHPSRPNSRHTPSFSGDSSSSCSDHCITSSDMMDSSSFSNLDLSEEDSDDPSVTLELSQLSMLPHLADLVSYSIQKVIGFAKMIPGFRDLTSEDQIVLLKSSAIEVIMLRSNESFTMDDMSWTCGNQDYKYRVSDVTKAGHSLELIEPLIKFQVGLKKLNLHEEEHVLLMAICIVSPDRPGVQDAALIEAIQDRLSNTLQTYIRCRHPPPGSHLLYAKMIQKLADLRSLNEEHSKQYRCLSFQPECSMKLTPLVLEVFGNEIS
#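 VDR–SRC2-3 interaction, FP format. Cmpds 23 nl via pintool, brief spin, 2 h ambient incubation.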
# Numbers without * were called inactive; u = inconclusive; & = joins results of further samples. On the % scale 0 is the no-effect control and ±100 the full control effect; potency means the concentration at half of the fitted maximal effect.
VDR inh | structure
-13% | Cn1c(=O)c2c(nc(SCCN3CCOCC3)n2Cc2ccccc2)n(C)c1=O
9% | Cc1ccc2cccc(OCc3ccc(Br)cc3)c2n1
-1% | O=C1COc2ccc(OCc3ccc(F)cc3)cc21
-4% | CCC1=Nc2cc(C(=O)NC(C)c3ccccc3)ccc2Sc2ccc(Cl)cc21 (centres undefined)
-8% | O=C(COc1cccc2ccccc12)NCc1cccnc1
15% | CC1CN(Cc2ccccc2)C(C)CC1O (centres undefined)
-5% | CSc1ccc(CCNC(=O)CCc2nnc3ccc(N4CCC5(CC4)OCCO5)nn23)cc1
2% | CC(=O)Nc1ccccc1C(=O)C(=O)Nc1cccc(C(=O)NCc2ccccc2)c1
17%&-5% | O=S(=O)(c1cccc2cnccc12)N1CCNCC1
-6% | CCCCn1c(Nc2ccc(OC)cc2)nc2ccccc21
-8% | O=C(/C=C/c1ccccc1)NNC(=O)c1ccco1
-3% | Cn1c(=O)c2c(-c3ccc(C(C)(C)C)cc3)n(CC3CCCO3)cc2n(C)c1=O (centres undefined)

# 3 compounds already listed, ordered by number of heavy atoms, rising:
VDR inh | structure
15% | CC1CN(Cc2ccccc2)C(C)CC1O (centres undefined)
17%&-5% | O=S(=O)(c1cccc2cnccc12)N1CCNCC1
-6% | CCCCn1c(Nc2ccc(OC)cc2)nc2ccccc21

# Following part:
VDR inh | structure
6% | CCOC(=O)c1c(NC(=O)CN2C(=O)NC3(CCCCC3C)C2=O)sc(C)c1C (centres undefined)
9% | COc1cc2c(cc1OC)CN(CC(=O)NC(=O)NCc1ccccc1)CC2
-6% | Cc1ccccc1OCC(O)Cn1nnc2ccccc21 (centres undefined)
-5% | CCC(C(=O)NCc1ccco1)N(C(=O)CNS(=O)(=O)c1ccc(C)cc1)c1ccccc1OC (centres undefined)
-8% | Cc1cccc(OCC2CCCN(Cc3nc(C4CC4)no3)C2)c1 (centres undefined)
-20% | O=C(O)c1ccccc1S(=O)(=O)NCC(O)COC1CCCCC1 (centres undefined)
1% | COc1cccc(C2=CC(c3cccc(OC)c3OC)n3nnnc3N2)c1 (centres undefined)
-3% | O=C(NCc1ccccc1Cl)C1(S(=O)(=O)c2ccc(Cl)cc2)CC1
5% | CCCOc1ccc(C(=O)NCCc2ccccc2)cc1
8% | CCCCCSc1nncc(=O)[nH]1
1% | O=C(CN(C(=O)CCC(=O)Nc1ccccn1)C1CCCC1)NCc1ccc(F)cc1
15% | CCc1c(C)c(C#N)c2nc3ccccc3n2c1N(C)C
-25% | O=C(NNC(=S)Nc1ccccc1)Nc1ccccc1
-3% | CCOc1ccccc1/C=C/C(=O)N1CCN(C(=O)c2ccco2)CC1
-3% | CCCOc1nc(SCCC)nc2c1cnn2-c1ccccc1
-1% | O=C(CN1C(=O)C(=O)N(Cc2ccco2)C1=O)NC1CCCCC1
-22% | O=C(C1CCCCCC1)N1CC[C@@H](N2CCC(O)CC2)[C@H](O)C1
18µM* | CCOC(=O)N1CCN(CCC(=O)c2ccc(Br)cc2)CC1
-5% | COc1ccc(C(=O)N/N=C/c2ccccn2)cc1OC
8% | CC1(C)C[C@](C)(C(=O)c2ccccc2)C=C1c1ccccc1
-1% | COc1ccc(C)cc1S(=O)(=O)N(C)CC(=O)NCc1ccncc1
4% | O=C(CSc1nccn1Cc1ccc(F)cc1)Nc1ccc2c(c1)OCO2
-1% | O=C(N1CCOCC1)C(F)(F)C(F)(F)C(F)(F)C(F)(F)C(=O)N1CCOCC1
5% | CC(C)c1nnc(NC(=O)C2CCCN2C(=O)Nc2ccc(F)cc2)s1 (centres undefined)
22% | COC(=O)N(C)CCCC1(C)C(=O)N(C)c2ccc(O)cc21 (centres undefined)
4% | CCCCn1c(N)c(N(CC(C)C)C(=O)CCNC(=O)c2ccc([N+](=O)[O-])cc2)c(=O)[nH]c1=O
-6% | CC(=O)N1CCc2cc(S(=O)(=O)NCCC(=O)Nc3cc(C)cc(C)c3)ccc21
-14% | CCN(Cc1ccncc1)Cc1cn(C)nc1-c1ccc(Oc2ccccc2)cc1
7% | COc1ccc(Cl)cc1NC(=O)Cn1cc(C(=O)c2ccc(C)cc2)c(=O)c2ccc(C)nc21
-3% | O=C(COC(=O)COc1ccc2c(c1)CCC2)Nc1ccccc1C(F)(F)F
11% | COc1ccc(CNC(=O)[C@@H](NC(=O)C2CCN(S(=O)(=O)c3ccc(C)cc3)CC2)C(C)C)cc1OC
-5% | COc1ccccc1/C=C/C(=O)NC(=S)Nc1ccc(S(=O)(=O)N(C)c2ccccc2)cc1
-11% | CN(C)S(=O)(=O)c1cccc(NC(=S)Nc2ccc(Cl)cc2Cl)c1
-8% | COc1ccc(S(=O)(=O)N(C)C[C@H]2Oc3ccc(NC(=O)Nc4ccccc4)cc3C(=O)N([C@H](C)CO)C[C@@H]2C)cc1
3% | CCc1ccccc1NC(=O)C1CC(c2ccc(F)cc2)=NO1 (centres undefined)
-4% | CCC(C)(C)n1nnnc1CN1CCc2ccccc21

# VDR inh, hit marks shown above
VDR inh | structure
18µM* | CCOC(=O)N1CCN(CCC(=O)c2ccc(Br)cc2)CC1

# (cont.)
VDR inh | structure
-11% | CCn1c(Oc2cccc(Br)c2)nc2c1c(=O)n(C)c(=O)n2C
10% | CC(=O)c1cccc(NC(=O)c2cc(=O)[nH]c3ccc(S(=O)(=O)N4CCOCC4)cc23)c1
-5% | CC(C)Oc1ccc(CNC(=O)C2CCN(c3nc4ccccc4n(C)c3=O)CC2)cc1
-17% | NC(=O)C1CCN(C(=O)N2c3ccccc3Sc3ccccc32)CC1
-11% | CCCC(C)c1nnc(NC(=O)C2CC(=O)N(c3ccc(OCC)cc3)C2)s1 (centres undefined)
-11% | O=C(CCC1CCCCC1)NC1CCCCC1
0% | Cc1cc(OCC(=O)N2CCN(c3ccccn3)CC2)cc(C)c1Br
10% | CCOC(=O)C(Cc1c[nH]c2ccc([N+](=O)[O-])cc12)(NC(C)=O)C(=O)OCC
-13% | CCN1CNC(=S)N(c2cc(C)ccc2C)C1
15% | COc1ccc(NS(=O)(=O)c2ccc(-c3cnc(C4CC4)o3)cc2)cc1Cl
0% | Cc1ccccc1CNCCCSc1nnnn1-c1ccccc1
8% | CCOC(=O)c1c(NC(=O)CSc2nc3c(c(=O)n(C)c(=O)n3C)n2CC)sc(C)c1C
-4% | CCN(CC)CCOC(=O)c1ccc(NC(=O)COc2cc(=O)n(CC)c3ccccc23)cc1
10% | CN(c1ccccc1)S(=O)(=O)c1cccc(C(=O)NCCc2ccc(O)c(O)c2)c1
4% | CCCCSCCCNC(=S)Nc1ccccc1C
-22% | COc1ccc(NC(=O)c2nc[nH]c2C(=O)N2CCN(C(=O)OC(C)(C)C)CC2)cc1
-8% | CCOc1ccc(-n2nc3ccc(NC(=O)c4ccc(C)cc4C)cc3n2)cc1
-1% | NC(=O)NC(=O)COC(=O)c1ccccc1OCc1ccc(F)cc1
10% | CCc1cccc(CC)c1NC(=O)c1c(C)oc2ccc(O)c(CN3CCCC3)c12
-5% | COC(=O)C1=C(C)N(Cc2ccccc2)C(=NCC(C)C)N[C@H]1c1cccc(F)c1
9% | O=C(NC1CCCC1)C(c1ccccc1)N(C(=O)c1ccno1)c1cccnc1 (centres undefined)
u | Nc1nc(CN2CCOCC2)cs1
-10% | NC(=O)C1CCN(CC(=O)Nc2ccccc2Sc2ccc(Cl)cc2)CC1
-4% | Cc1cc2nc3c(nc2cc1C)C1(C(=O)O)CCC3(C)C1(C)C (centres undefined)
-14% | CCOc1cccc(CNc2nnnn2C)c1
-4% | CCc1ccc(C2=NN(S(C)(=O)=O)C(c3cccs3)C2)cc1 (centres undefined)
-20% | COc1ccc(O)c(/C=N/Nc2nc3ccccc3[nH]2)c1
-1% | CCc1cc(C(=O)NNC(=O)CCN2CCN(c3ccccc3)CC2)sc1C
9% | O=C(Nc1cc(F)ccc1F)C1CCCO1 (centres undefined)
-3% | COCCn1c(=O)c(CCc2ccccc2)nc2cnc(N3CCNCC3)nc21
-15% | CCN(c1ccccc1)S(=O)(=O)c1ccc(C(=O)Oc2ccc(C(C)=O)cc2)cc1
u | Cc1ccccc1-c1nc(P(=O)(c2ccccc2)c2ccccc2)c(N2CCOCC2)o1
-9% | Cc1ccnc(NC(=O)CNC(=O)c2ccc3c(c2)OCO3)c1
-19% | CCNS(=O)(=O)c1ccc(CCC(=O)N2CCOCC2)cc1
-7% | CSc1nc2ccc(S(=O)(=O)N(C)C)cc2s1
-24% | CN(C)c1ccc(-c2cc(NCc3ccccc3)ncn2)cc1
-12% | Nc1ccccc1-c1nnc2n1CCCCC2
-8% | CCCn1c(SCC(=O)Nc2ccc3c(c2)CCC3)n[nH]c1=O
-5% | CCOC(=O)C(NC(C)=O)(Nc1ccc(F)cc1)C(F)(F)F (centres undefined)
-3% | CC1CCCCN1CCNC(=O)C1CCN(S(=O)(=O)c2cccc3nsnc23)CC1 (centres undefined)
25% | Cc1cc(OC(=O)c2ccccc2[N+](=O)[O-])c([N+](=O)[O-])c(=O)[nH]1
-20% | CCOC(=O)N1CCN(C(=O)C(C)n2nc(C)n3c(cc4sccc43)c2=O)CC1 (centres undefined)
3% | Cc1ccc(Cl)cc1N1CCN(C(=O)Cn2cnc3nc4c(cc3c2=O)CCCC4)CC1
-13% | CCOc1cc(C(=O)NCCOC)ccc1OC
-4%&5% | CCOc1ccccc1C(=O)Nc1nnc(COC)s1
10% | CSc1ccc(CNC(=O)Cn2ccc3cc(S(=O)(=O)N4CCCC4)ccc32)cc1
1% | O=C(Nc1cccc(S(=O)(=O)N2CCCCCC2)c1)C1CC(=O)N(c2ccc3c(c2)OCCO3)C1 (centres undefined)
14% | Cc1cccc(-c2nnc(-c3cccc(NC(=O)Cc4cccs4)c3)o2)c1

# A portion of the results above, for reference:
VDR inh | structure
-12% | Nc1ccccc1-c1nnc2n1CCCCC2
-8% | CCCn1c(SCC(=O)Nc2ccc3c(c2)CCC3)n[nH]c1=O
-5% | CCOC(=O)C(NC(C)=O)(Nc1ccc(F)cc1)C(F)(F)F (centres undefined)
-3% | CC1CCCCN1CCNC(=O)C1CCN(S(=O)(=O)c2cccc3nsnc23)CC1 (centres undefined)
25% | Cc1cc(OC(=O)c2ccccc2[N+](=O)[O-])c([N+](=O)[O-])c(=O)[nH]1
-20% | CCOC(=O)N1CCN(C(=O)C(C)n2nc(C)n3c(cc4sccc43)c2=O)CC1 (centres undefined)
3% | Cc1ccc(Cl)cc1N1CCN(C(=O)Cn2cnc3nc4c(cc3c2=O)CCCC4)CC1

# Remaining list, next part
VDR inh | structure
-14% | O=C(O)CC1Oc2ccc(Cl)cc2NC1=O (centres undefined)
-13% | CCc1ccccc1NC(=O)COc1cccc2ccc(C)nc12
8% | CCOc1cc(C(=O)NN2CCOCC2)cc(OCC)c1OCC
-8% | O=C(O)CC(NC(=O)C12CC3CC(CC(C3)C1)C2)c1ccc(Cl)cc1 (centres undefined)
6% | CCOC(=O)NC(=O)/C(N=Nc1ccc(C(F)(F)F)cc1)=C(\C)O
-2% | COc1cc(CNC2CCCCC2)c(Br)cc1OC1CCCC1
-6% | O=C(Nc1ccc(F)cc1F)NC1CCN(S(=O)(=O)c2ccc(F)cc2)CC1
-1% | COc1ccc(Cc2nc(-c3ccncc3)no2)cc1
1% | Cc1cccc(-n2c(C)cc(/C=C3\C(=N)N4N=C(CC(C)C)SC4=NC3=O)c2C)c1
-6% | CCS(=O)(=O)c1ccccc1C(=O)NC1CCCc2ccccc21 (centres undefined)
-8% | O=c1c2ccccc2nnn1CSc1nnnn1-c1ccc(O)cc1
-5% | Cc1ccc(S(=O)(=O)N(Cc2ccc(Cl)cc2)c2ccccc2C(=O)NCc2cccnc2)cc1

# Part of the list above in a different format:
canonical_smiles | VDR inh
COc1cc(CNC2CCCCC2)c(Br)cc1OC1CCCC1 | -2%
O=C(O)CC1Oc2ccc(Cl)cc2NC1=O (centres undefined) | -14%
COc1ccc(Cc2nc(-c3ccncc3)no2)cc1 | -1%
Cc1ccc(S(=O)(=O)N(Cc2ccc(Cl)cc2)c2ccccc2C(=O)NCc2cccnc2)cc1 | -5%

# Carrying on:
VDR inh | structure
u | Cc1ccc(S/C(=N\S(=O)(=O)c2ccc(Cl)cc2)c2ccccc2)cc1
2% | CN(CCC#N)CC(=O)Nc1ccc(S(N)(=O)=O)cc1
1% | CC1Oc2ccccc2N(CC(=O)N(Cc2ccccc2)Cc2ccccn2)C1=O (centres undefined)
-14% | Cc1cc(C)c(S(=O)(=O)Nc2cccc(C(=O)O)c2)cc1S(=O)(=O)Nc1cccc(C(=O)O)c1
u | c1ccc2c(c1)OCC(c1nnc3sc(-c4cnccn4)nn13)O2 (centres undefined)
-1% | CN(C[C@H](CC1CCCCC1)N(C[C@H](Cc1ccccc1)N(CCc1ccccc1)N=O)N=O)N=O
8% | O=C(CSCCO)Nc1ccc([N+](=O)[O-])cc1
-14% | CC(CCc1ccccc1)NC(=O)COC(=O)c1ccccc1Br (centres undefined)
-8% | O=C(N/N=C/c1ccc(Br)cc1)c1ccc(Br)o1
-9% | CCOc1ccccc1Cn1c(=O)sc2ccccc21
-7% | COc1cccc(CN2CCN(Cc3cc(OC)c(OC)cc3[N+](=O)[O-])CC2)c1
12% | CCOC(=O)CSc1ccc(S(=O)(=O)N2CCCC2)cc1[N+](=O)[O-]
5% | O=C(Nc1ccnn1C1CCN(CCCC2CCCC2)CC1)c1ccccc1Cl
-19% | COc1cccc(-c2nnc(NC(=O)c3ccccc3Br)o2)c1
-4% | OCCNc1nc(Nc2ccccc2)nc2ccccc12
5% | O=c1c2c3nc4ccccc4nc3n(-c3ccc4c(c3)OCCO4)c2ncn1C1CCCC1

# An excerpt, so the mix of outcomes need not match the whole.
